Vif A3G – HIV-1 Vif–A3G interaction blockers – biochemical, TR-FRET, GST-Vif 1-94, biotin-A3G peptide, dose response retest, primary screen (AID 1117319); inhibition, %; hits with a dose series show IC50 in µM; TR-FRET GST-Vif / biotin-A3G peptide binding; higher % means a stronger effect; test concentration not given here; strong numbers were not always called active; actives 0.57% (n = 260,000);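 active = above the screen mean plus three standard deviations and confirmed in dose response; inconclusive = results disagree or hit not tested in dose response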;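 also: Vif residues 1-94 fused to GST binding biotinylated APOBEC3G peptide 110-148; 0% = full assay without inhibitor and 100% = GST in place of GST-Vif; retest series ran down from 100 µM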
ALR inh – inhibitors of human sulfhydryl oxidase ALR; P55789; purified ALR, DTT oxidation, H2O2 HRP-luminol luminescence; inhibition, % (no concentration beside the values); actives 3.8% (n = 290,000); AID 485317;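 active = mean and each replicate at 75% or more; inconclusive = only one of the two met; inactive = neither met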;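 also: stock transfer was 7.5 nL into about 7.5 µL; 0% = neutral wells and 100% = wells with inactivated enzyme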
Target sequence (P55789 whole entry, looked up): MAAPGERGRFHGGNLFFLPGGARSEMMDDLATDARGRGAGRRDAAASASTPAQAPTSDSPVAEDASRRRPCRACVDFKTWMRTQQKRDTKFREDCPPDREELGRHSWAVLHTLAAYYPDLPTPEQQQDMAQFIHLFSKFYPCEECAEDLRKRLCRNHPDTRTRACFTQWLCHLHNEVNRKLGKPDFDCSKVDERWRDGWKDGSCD
* = called active by the depositor; ? = inconclusive. A portion of the library; count on the stated rates, not on these rows.

Vif A3G,ALR inh,structure
3%,2,C#CCOCCOCCOCCNc1nc(N2CCN(C(=O)[C@H](Cc3ccc(O)cc3)n3cc(CCO)nn3)CC2)nc(N2CCN(C(=O)[C@H](Cc3ccc(O)cc3)n3cc(CCO)nn3)CC2)n1
?,39,Cc1ccc(Cl)cc1Nc1nc(-c2sc(NC(=O)c3cccc(Cl)c3)nc2C)cs1
4%,-8,C/C(=N\Nc1ccc(F)cc1F)c1cccs1
25%,-7,CC(=O)C1=C(C)NC(SCC(=O)c2ccc(C)cc2)=C(C#N)C1c1ccco1 (stereo unspecified)
-1%,3,COc1cc(/C=C/C(=O)Nc2ccccc2C(F)(F)F)cc(OC)c1OC
-6%,-2,Cc1ccc(CNC(=O)Cn2c(=O)c3sccc3n(Cc3cccc([N+](=O)[O-])c3)c2=O)cc1
1%,?,CC(=O)Nc1ccc(S(=O)(=O)Oc2ccc3c(c2)C(C)=CC(C)(C)N3)cc1
0.24µM*,1,O=C(NCCO)Nc1ccc2nc(-c3ccco3)c(-c3ccco3)nc2c1
3%,4,O=C(O)c1coc2ccccc12
4%,-24,CCCCCCNC(=O)N[C@@H](C(=O)NCCC[C@H]1CN2C(=NC[C@@H]2Cc2ccccc2)N1CCc1cccc(OC)c1)C(C)C
7%,1,CC1(C2(O)CC(c3ccccc3)ON2)CCCCC1 (stereo unspecified)
4%,1,O=S(=O)(Nc1nc2ccccc2nc1-[n+]1cccc(N=C([O-])c2ccccc2Cl)c1)c1ccccc1
?,-11,Cc1ccc(CN2C(=O)C3CCCN3c3ccc(S(=O)(=O)N4CCOCC4)cc32)cc1 (stereo unspecified)
-12%,-14,CN1CCN(C2=Nc3cc(F)ccc3Cc3ccccc32)CC1
1.1µM*,99*,Nc1ccc(N2CCCCCC2)cc1
-3%,7,CC1(C(=O)CSc2n[nH]c(-c3ccccc3Cl)n2)CCC(=O)O1 (stereo unspecified)
-4%,-3,C#CCOCCOCCOCCNc1nc(N2CCN(C(=O)[C@H](CCC(=O)O)n3cc(C(N)Cc4ccc(O)cc4)nn3)CC2)nc(N2CCN(C(=O)[C@H](Cc3cc4ccccc4[nH]3)n3cc(C(N)CC(C)C)nn3)CC2)n1 (stereo partly specified)
?,4,Cn1c(N)c(C(=O)COC(=O)c2cc(-c3ccco3)nc3ccccc23)c(=O)n(Cc2ccccc2)c1=O
5%,16,CC(C)Cn1c(N)c(C(=O)CSc2nc3ccccc3c(=O)n2CCCN2CCOCC2)c(=O)n(C)c1=O
3%,99*,CN(C)c1ccc(/C=C/c2cc[n+]([O-])cc2)cc1
15%,57,O=c1cc(-c2c(F)c(F)c(F)c(F)c2F)oc2c(F)c(F)c(F)c(F)c12
24%,0,CCCn1c(N/N=C(C)\C=C\c2ccccc2)nc2c1c(=O)[nH]c(=O)n2C
?,2,CCc1nc2c(c(=O)c3ccccc3n2C)c(=O)n1CCc1ccc(OC)cc1
2%,-12,Cc1nc(NC(=O)c2cccc(Cl)c2)sc1-c1csc(Nc2cccc(Cl)c2)n1
-1%,3,Cc1onc(-c2c(Cl)cccc2Cl)c1C(=O)n1nnc2ccccc21
9%,-4,CSc1nc(-c2ccco2)nn1S(=O)(=O)c1ccccc1
9%,58,CCOc1ccc(C2C(C(=O)C3CC3)N3C=C(C#N)C=CC3C2(C#N)C#N)cc1 (stereo unspecified)
-5%,-2,COc1cc(OC)cc(-c2cc3nc(C)cc(N4CCN(C(=O)c5ccco5)CC4)n3n2)c1
3%,-4,O=C1CC(c2ccccc2Br)c2cc3c(cc2N1)CCC3 (stereo unspecified)
-1%,9,CCCC(=O)Nc1cc(-c2nnc(OC)c3ccccc23)ccc1N1CCCCC1
?,19,Cc1ccc(C2C(C#N)=C(N)SC(N)=C2C#N)o1
-17%,-6,O=c1c2c3c(sc2nc(N2CCNCC2)n1-c1cccc(Cl)c1)CCCCC3
2%,33,COc1cccc(C2=CC(c3ccc(C)cc3)n3ncnc3N2)c1 (stereo unspecified)
10%,-11,Cc1ccc(N/N=C2\CC(=O)c3ccccc32)cc1Cl
6%,-4,CCOc1ccc(NC(=O)c2oc3ccccc3c2NC(=O)CC)cc1
?,8,CC[C@H]1OC(=O)C[C@@H](O)[C@H](C)[C@@H](O[C@@H]2O[C@H](C)C[C@H](N(C)C)[C@H]2O)[C@@H](CC=O)C[C@@H](C)C(=O)C=C[C@]2(C)O[C@H]2[C@@H]1C
12µM*,-11,CCCCC1=CC2=CC(=O)C(C)(OC(=O)c3cnc4ccccc4n3)C(=O)C2=CO1 (stereo unspecified)
33%,2,c1ccc(C2=Nc3ccccc3SC2c2nc3ccccc3[nH]2)cc1 (stereo unspecified)
33%,-23,O=c1cc(CO)oc(C(Nc2ccccn2)c2ccsc2)c1O (stereo unspecified)
?,41,CC(=O)C1=C(C)NC(SCC(=O)c2ccccc2)=C(C#N)C1c1ccco1 (stereo unspecified)
9%,8,S=C(NCCc1ccccc1)N/N=C/C1CCCCC1
25%,96*,CCOC(=O)C1=C(C)NC(=O)C1CC(=O)Nc1ccccc1 (stereo unspecified)
24%,-54,CC(=O)N1c2ccc3ccccc3c2C2C=CCC2C1c1ccc(Br)cc1 (stereo unspecified)
?,0,CSCSC1=C(C#N)C(c2ccc(Cl)cc2)C(C(C)=O)=C(C)N1 (stereo unspecified)
32%,4,CCCc1ccc(/C=C2\C(=O)c3ccccc3C(O)=C2C(=O)OCC)cc1
10%,-1,Cc1cccc(-n2c3nc(=O)[nH]c(=O)c-3cc3c(C)nn(-c4ccccc4)c32)c1
?,0,CCOC(=O)c1c(C)[nH]c(C2=NNC(=Nc3cccc(Cl)c3)SC2)c1C
2.7µM*,99*,O=C(O)C1OC(Oc2c(-c3ccc(O)c(O)c3)oc3cc(O)cc(O)c3c2=O)C(O)C(O)C1O (stereo unspecified)
4%,22,Cc1nn(-c2ccccc2)c(Cl)c1/C=N/NC(=O)CCNc1n[nH]c(=O)[nH]c1=O
?,0,COC(=O)[C@@]1(Cc2ccccc2)[C@H]2c3cc(C(=O)N4CCCC4)n(CCSCCO)c3C[C@H]2CN1C(=O)c1ccccc1
7%,-8,O=C(N/N=C/c1cccnc1)c1ccccc1OCc1ccc(Cl)cc1
0%,13,N#CC1=C(N)SC(N)=C(C#N)C1CCC1CCCCC1
-1%,8,NC(C(=O)O)C1CC(Cl)=NO1 (stereo unspecified)
-9%,-37,C#CCOCCOCCOCCNc1nc(N2CCN(C(=O)[C@H](CCCCN)n3cc([C@@H](N)CO)nn3)CC2)nc(N2CCN(C(=O)[C@H](Cc3cc4ccccc4[nH]3)n3cc([C@@H](N)CC(C)C)nn3)CC2)n1
18%,-15,COc1cccc(C=Nc2cccnc2)c1O
4%,3,CC1(C(=O)Nc2cccc(C(F)(F)F)c2)CO1 (stereo unspecified)

Next entries.
Vif A3G,ALR inh,structure
-6%,-25,O=C(COc1ccccc1)Nc1ccc(Cl)cc1Cl
-17%,4,Nc1ncnc2c1ncn2[C@@H]1O[C@H](CO)C[C@@H]1O
32%,-21,Cc1ccc(/C([O-])=C(/C(=S)NCc2ccco2)[n+]2ccccc2)cc1
8%,3,COc1ccc2c(c1)/C(=N/N1C(=O)c3ccccc3C1=O)C(=O)N2
-5%,-22,O=C(N/N=C/c1ccccc1O)c1cc(=O)[nH]c2ccccc12
6%,-5,COCCn1c(N/N=C(C)/C=C/c2ccccc2)nc2c1c(=O)[nH]c(=O)n2C
-1%,5,CCCc1nc2c(C)cc(-c3nc4ccccc4n3C)cc2n1Cc1ccc(-c2ccccc2C(=O)O)cc1
31%,20,CC(C)(C)C(=O)/C(=C\c1ccc([N+](=O)[O-])cc1)n1cncn1
0%,8,CCN(CC)c1ccc2cc(C(N)=O)/c(=N\NC(=O)c3ccncc3)oc2c1
-4%,-1,CCOC(=O)C1=C(N)n2c(s/c(=C/c3ccccc3)c2=O)=C(C(=O)OCC)C1c1ccccc1 (stereo unspecified)
?,-6,O=C(Nc1ccc(F)c(F)c1)c1ccc(F)c(S(=O)(=O)N2CCOCC2)c1
5%,-9,O=C(C1=C[C@@H]2[C@H]3C(=O)N(c4ccccc4Cl)C(=O)[C@H]3[C@@H](C(=O)c3ccc(Cl)cc3)N2C=C1)c1ccccc1
3%,-6,O=C(Nc1ccc2c(c1)nc1n2CCN(C2CCCCC2)C1)NC1CCCCC1
17%,6,Cc1ccc(SCc2cc(=O)n3ccsc3n2)c(C)c1
8%,-4,C#CCOCCOCCOCCNc1nc(N2CCN(C(=O)[C@H](CCCCN)n3cc(C(N)CO)nn3)CC2)nc(N2CCN(C(=O)[C@H](CCC(=O)O)n3cc(C(N)[C@H](C)CC)nn3)CC2)n1 (stereo partly specified)
?,-4,O=C1NCCCC2c3cc(O)c4ccccc4c3OC12N1CCCCC1 (stereo unspecified)
-2%,0,NCCCC[C@H](NC(=O)C1CCNCC1)c1nnc(CN)o1
0.82µM*,-19,O=C(O)c1ccc(Cl)c2c1C1C=CCC1C(c1ccccn1)N2 (stereo unspecified)
?,15,Cn1c(=O)c(C(=O)COC(=O)c2cc(-c3ccco3)nc3ccccc23)c(N)n(Cc2ccccc2)c1=O
21%,98*,O=C1CCCC/C1=N\Nc1ccc(C2CCCCC2)cc1
26%,5,COc1ccc(NS(=O)(=O)c2ccc(N)cc2)nn1
6%,-1,Cc1cc(Cl)c(OCCCCNC(C)(C)C)c(Br)c1
-5%,-3,O=C(CCS(=O)NCc1ccccc1)NCc1ccccc1 (stereo unspecified)
8%,-2,Cc1ccc2c(Cl)cc(Cl)c(OCC(=O)Nc3ccc(C)c(S(=O)(=O)N(C)C)c3)c2n1
-7%,-12,O=C(Oc1ccc2cc(Br)ccc2c1)N1CCCCCC1
15%,11,Cc1cc(=O)n2c3c(sc2n1)C(=O)N(Cc1ccccc1)C3=O
-2%,-10,COc1ccc(O[C@H]2C=C[C@@H](c3ccccc3)O[C@@H]2COC(=O)CC/C(C)=N/OC[C@@H](O)[C@H]2O[C@@H]3OC(C)(C)O[C@@H]3[C@H]2O)cc1
4%,6,COc1ccc(-c2coc3c(CN4CCCCC4)c(O)c(CN4CCCCC4)c(O)c3c2=O)cc1
5.1µM*,-10,Cc1ccc(C)n1-c1ccc(C(=O)O)cc1
-3%,-33,CC(C)Cn1cc(C(=O)NC2CCN(Cc3ccccc3)CC2)c2c3ccccc3n(C)c2c1=O
0%,-8,Nc1nc(Nc2cccc3ccccc23)nc(C2CCCC2=O)n1 (stereo unspecified)
-1%,8,C[C@H]1CC[C@H]2C(=O)N3[C@H](c4cccc(N5CCCC5=O)c4)[C@@H](C)CC[C@H]3C(=O)N2[C@@H]1c1cccc(N2CCCC2=O)c1
15%,12,Cc1c(/C=N/NC(=O)c2cccnc2)c2ccccn2c1C(=O)c1ccc(F)cc1
-4%,41,CCOC(=O)/C(N=Nc1sc(C(=O)OCC)c(C)c1C(=O)OCC)=C(\C)O
-19%,-10,COc1ccc(NC(=O)N(Cc2cccs2)Cc2cc3cc4c(cc3[nH]c2=O)OCO4)cc1

Structural class: the compounds so far with an NH in an aromatic ring.
Vif A3G,ALR inh,structure
-3%,7,CC1(C(=O)CSc2n[nH]c(-c3ccccc3Cl)n2)CCC(=O)O1 (stereo unspecified)
-4%,-3,C#CCOCCOCCOCCNc1nc(N2CCN(C(=O)[C@H](CCC(=O)O)n3cc(C(N)Cc4ccc(O)cc4)nn3)CC2)nc(N2CCN(C(=O)[C@H](Cc3cc4ccccc4[nH]3)n3cc(C(N)CC(C)C)nn3)CC2)n1 (stereo partly specified)
24%,0,CCCn1c(N/N=C(C)\C=C\c2ccccc2)nc2c1c(=O)[nH]c(=O)n2C
33%,2,c1ccc(C2=Nc3ccccc3SC2c2nc3ccccc3[nH]2)cc1 (stereo unspecified)
10%,-1,Cc1cccc(-n2c3nc(=O)[nH]c(=O)c-3cc3c(C)nn(-c4ccccc4)c32)c1
?,0,CCOC(=O)c1c(C)[nH]c(C2=NNC(=Nc3cccc(Cl)c3)SC2)c1C
4%,22,Cc1nn(-c2ccccc2)c(Cl)c1/C=N/NC(=O)CCNc1n[nH]c(=O)[nH]c1=O
-9%,-37,C#CCOCCOCCOCCNc1nc(N2CCN(C(=O)[C@H](CCCCN)n3cc([C@@H](N)CO)nn3)CC2)nc(N2CCN(C(=O)[C@H](Cc3cc4ccccc4[nH]3)n3cc([C@@H](N)CC(C)C)nn3)CC2)n1
-5%,-22,O=C(N/N=C/c1ccccc1O)c1cc(=O)[nH]c2ccccc12
6%,-5,COCCn1c(N/N=C(C)/C=C/c2ccccc2)nc2c1c(=O)[nH]c(=O)n2C
-19%,-10,COc1ccc(NC(=O)N(Cc2cccs2)Cc2cc3cc4c(cc3[nH]c2=O)OCO4)cc1
